Source: PubChem
fixLJ activator = increases Burkholderia fixLJ two-component signaling; B. multivorans fixK-promoter GFP reporter, 18 h; active compounds read high; AID 1918990; 29,000 compounds, 0.3% hits; z-score (test concentration not listed);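 active = replicate mean overnight rise in green fluorescent reporter signal, 3 or more SD over negative controls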;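 also: score is relative to vehicle wells of the plate; 300 nL library stock went into each well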
* marks the source's active call; other numbers are inactive results. This is a subset; rates above refer to the full screens.

SMILES	fixLJ activator
CC(C)Cc1cc(CN2CCCn3nc(C(O)c4ccnn4C)cc3C2)[nH]n1 (stereo not drawn)	0.11
COCCCN(Cc1cccc(OC)c1)S(=O)(=O)c1cc(C)cc2cccnc12	-1.62
Cc1ccc(CNC(=O)CCCCCn2c(=O)c3sccc3n(CC(=O)N(C)c3ccccc3)c2=O)cc1	-1.26
Cc1ccccc1Cn1c(=O)n(CCCCC(=O)NCc2ccccc2Cl)c(=O)c2ccccc21	-0.57
Nc1cc(=O)nc(SCC(=O)Nc2ccc(F)cc2)n1-c1ccccc1Cl	-0.08
Cc1cc2nc(-c3ccc(NC(=O)c4ccccc4F)cc3)oc2cc1C	0.2
c1ccc(Cn2ccnc2C2CCCN(c3ncnc4[nH]ccc34)C2)nc1 (stereo not drawn)	-1.28
CC(C)n1c(SCC(=O)Nc2ccc(F)cc2)nc2c(oc3ccccc32)c1=O	-0.19
CCOC(=O)c1sc(NC(=O)c2nc3nc(C)cc(C(F)F)n3n2)c(C(=O)OC(C)C)c1C	-0.31
Cn1c(CN2CCC(O)CC2)nnc1C1CCCN(C(=O)C2CC2)C1 (stereo not drawn)	0.95
NS(=O)(=O)c1ccc(CNC(=O)c2cc3c(s2)C2(CCNCC2)OCC3)cc1	-0.79
CCc1ccc(NC(=O)c2cc(=O)c3ccc(C)c(C)c3o2)cc1	1.1
Cc1ccccc1C(=O)Nc1cc(C)c(O)c(-c2nc3ccccc3o2)c1	-1.16
O=C(C=Cc1ccccc1)N1CCC(O)[C@@](CC2CC2)(C(=O)O)C1 (stereo partly drawn)	-0.47
Cc1ccc(CNC(=O)C2CCCN(c3nnc(-n4c(C)ccc4C)s3)C2)cc1 (stereo not drawn)	0.25
Cc1ccc(F)cc1CC(=O)NCCN(C)S(C)(=O)=O	0.76
COc1ccccc1Cn1cc(C(=O)c2ccc(Cl)cc2)c(=O)c2cc3c(cc21)OCCO3	0.34
COc1ccc(-c2nc(S(=O)(=O)c3ccc(C)cc3)c(NCc3ccccc3)o2)cc1	-0.67
Cc1cccc(NC(=O)Cn2c(=O)n(Cc3ccc4c(c3)OCO4)c(=O)c3ccccc32)c1	-5.22
Cn1c(CO)nnc1C1CC(NC(=O)CCc2nc(-c3ccccc3)no2)C1 (stereo not drawn)	1.6
COc1cccc(-n2c(-c3ccco3)nc3c(cnn3-c3ccc(C)cc3)c2=O)c1	-1.82
COc1ccc(N2CC3=C(C2=O)C(c2ccc(O)c(OC)c2)NC(=O)N3C)cc1 (stereo not drawn)	-0.9
Cc1[nH]c(C(=O)O)c(C)c1C(=O)NCC1CCCN(C2CCCC2)C1 (stereo not drawn)	-1.33
Cc1ccc(C)c(NC(=O)c2nn(C)c3c2CS(=O)(=O)c2ccccc2-3)c1	-2.32
CCOC(=O)C1CCN(C(=O)Cn2nc(C)n3c(cc4cc(F)ccc43)c2=O)CC1	-0.22
CC(C)C1CN(C(=O)c2ccc(CO)o2)CCC(=O)N1Cc1ccc(F)cc1 (stereo not drawn)	-3.64
Cn1c2c(c(=O)n(C)c1=O)C(c1ccccc1[N+](=O)[O-])CC(=O)N2 (stereo not drawn)	-0.47
Cc1nc2c3cccnc3nn2c(C)c1CCC(=O)NCc1ccccc1Cl	1.85
Cc1sc2c(c1C)c(=O)n(CCc1ccccc1)c(=O)n2Cc1ccc(F)cc1	0.07
CC(C)c1ocnc1C(=O)N1CCC2C(C1)OCc1cnnn12 (stereo not drawn)	-0.91

Ten compounds out of the list, arranged by heavy-atom count, descending.
SMILES	fixLJ activator
Cc1cccc(NC(=O)Cn2c(=O)n(Cc3ccc4c(c3)OCO4)c(=O)c3ccccc32)c1	-5.22
COc1ccc(-c2nc(S(=O)(=O)c3ccc(C)cc3)c(NCc3ccccc3)o2)cc1	-0.67
CCOC(=O)C1CCN(C(=O)Cn2nc(C)n3c(cc4cc(F)ccc43)c2=O)CC1	-0.22
COc1ccc(N2CC3=C(C2=O)C(c2ccc(O)c(OC)c2)NC(=O)N3C)cc1 (stereo not drawn)	-0.9
CC(C)C1CN(C(=O)c2ccc(CO)o2)CCC(=O)N1Cc1ccc(F)cc1 (stereo not drawn)	-3.64
Cc1ccc(C)c(NC(=O)c2nn(C)c3c2CS(=O)(=O)c2ccccc2-3)c1	-2.32
Cc1[nH]c(C(=O)O)c(C)c1C(=O)NCC1CCCN(C2CCCC2)C1 (stereo not drawn)	-1.33
Cn1c2c(c(=O)n(C)c1=O)C(c1ccccc1[N+](=O)[O-])CC(=O)N2 (stereo not drawn)	-0.47
CC(C)c1ocnc1C(=O)N1CCC2C(C1)OCc1cnnn12 (stereo not drawn)	-0.91
Cc1ccc(F)cc1CC(=O)NCCN(C)S(C)(=O)=O	0.76

Further entries:
SMILES	fixLJ activator
CCc1c(C)sc(NC(=O)c2cc(-c3ccc(OC)c(OC)c3)on2)c1C#N	2.4
Cc1cc(C)n(CCN(C)C(=O)NCCCSc2nnc(C)s2)n1	-2.54
CCCOc1ccc(NC(=O)NCc2cn3c(n2)SCC3)cc1Cl	-3.31
CC(C)(C)c1ccc(NC(=O)CSc2nnc3scc(-c4ccccc4)n23)cc1	-1.03
CCC(C(=O)NCCC(C)C)N(C(=O)Cn1nnc(-c2ccc(C)cc2)n1)c1cccc(O)c1 (stereo not drawn)	-2.78
COc1ccccc1C1NC(=O)c2n[nH]c(-c3cccs3)c21 (stereo not drawn)	-1.31
CCOC(=O)c1ccc(NC(=O)C(=O)NCCc2ccc(OC)cc2)cc1	-1.06
O=S(=O)(NCCN1CCCC(CO)C1)c1cc(C(F)(F)F)cc(C(F)(F)F)c1 (stereo not drawn)	1.6
CCOC(=O)c1cnc2c(C(F)(F)F)cccc2c1Nc1cccc(C(=O)OC)c1	-4.46
COc1cc(NC(=O)Cn2c(=O)n(Cc3ccccc3Cl)c(=O)c3cc(OC)c(OC)cc32)cc(OC)c1	0.34
COc1ccccc1Cc1nc2ccccc2[nH]c1=O	0.56
CCCN(CCC)C(=O)Cn1nnc2sc(-c3ccccc3)cc2c1=O	0.06
CCc1ccc(-c2nc(CSCC(=O)N3CCN(c4ccc(F)cc4)CC3)c(C)o2)cc1	-1.55
COc1ccc(NC(=O)Cn2nnc(C(=O)NCc3ccc4c(c3)OCO4)c2N)cc1	-1.58
CCOC(=O)c1ccc(N2C(=O)c3[nH]nc(-c4ccc(C)cc4)c3C2c2ccc(O)c(OCC)c2)cc1 (stereo not drawn)	0.52
O=S(=O)(Nc1ccc(Cl)cc1)c1cccc(S(=O)(=O)c2ccc(Cl)c(Cl)c2)c1	-0.87
Cc1cccc(OCC(=O)Nc2cccc(-c3nc4ccccc4s3)c2)c1	2.43
CCOc1ccccc1CNC(=O)c1ccc2c(c1)N(Cc1ccc(C)cc1)CCS2	0.43
Cc1cc(C)n(-c2nc3cc(Cl)c(Cl)cc3nc2Nc2ccc(F)cc2C)n1	-1.05
Cc1oc2c(c(C)cc3oc(=O)c(CC(=O)NCc4ccccc4)c(C)c32)c1C	-1.52
CC(C)Cc1cc(C(=O)N2CCC(n3cc(-c4ccccn4)nn3)CC2)on1	-0.44
O=C(NCCc1ccccc1)c1cccc(S(=O)(=O)NC2CCOC2)c1 (stereo not drawn)	-0.01
CCc1ccc2nc(C)cc(C(=O)N3CCN(C4CCCC4)C(=O)C3)c2c1	-2.16
Cc1ccc(C(=O)Nc2cccc(C(=O)O)c2)cc1S(=O)(=O)N1CCCC1	0.04
COCC(=O)NCc1cc2n(n1)CCCN(CC(C)(C)CN1CCCC1)C2	-1.67
Cc1noc(C2CCCCN2C(=O)NCC2(Cn3ccnc3C)CC2)n1 (stereo not drawn)	0.3
Cc1nnc(SCC(=O)NC2CCCCC2c2ccccc2)o1 (stereo not drawn)	-0.26
Cc1cccc(C)c1NS(=O)(=O)c1ccc2c(c1)[C@H]1C=CC[C@H]1[C@@H](c1ccc(Cl)cc1)N2	-2.85
CCOc1ccc(NC(=O)CN2C(=O)C(c3ccccc3)=NC23CCC(C)CC3)cc1 (stereo not drawn)	-0.72
CN1CCc2[nH]cnc2C12CCN(c1nnc(-c3ccccc3)s1)CC2	-1.23
Cc1ccc(-c2cc3c(N4CCN(c5cc(C)ccc5C)CC4)nccn3n2)cc1	-0.3
Cc1cccc(CNC(=O)Cn2nc(C)n3c(cc4cc(F)ccc43)c2=O)c1	-1.98
Cc1ccc(NC(=O)C2CCN(C(=O)c3cnn(-c4ccccc4)c3-n3cccc3)CC2)cc1C	-1.18
COc1ccc(Cl)cc1NC(=O)CN(c1cccc(C)c1C)S(C)(=O)=O	-1.23
CCNc1nc(NC(C)(C)C)nc(Oc2ccc(=O)n(-c3ccccc3)n2)n1	-1.24
CCc1ccc(-n2c(CCC(=O)O)ccc2-c2ccc(F)cc2)cc1	-2.94
O=C(NCCc1nc2ccccc2[nH]1)c1cnn2ccccc12	-1.74
CCCCCCOc1ccc(-c2nc3ccc(Br)cc3c(=O)o2)cc1	-0.21
COc1ccc(-n2c(CCC(=O)O)ccc2-c2ccccc2)c(OC)c1	-2
CCCOc1cccc(C2c3c(oc4ccc(F)cc4c3=O)C(=O)N2c2nc(C)c(C(C)=O)s2)c1 (stereo not drawn)	-3.24
Cc1ccc(C(=O)Nc2cccc(O)c2)cc1S(=O)(=O)N1CCCCCC1	1.19
c1ccc(CNc2ncc(CN3CCCC3c3cccnc3)cn2)cc1 (stereo not drawn)	-1.5
COc1ccc(NC(=O)CSc2nc3c(oc4ccccc43)c(=O)n2-c2ccc(C)c(C)c2)cc1	-0.97
CCOC(=O)c1ccc(NC(=O)Cc2coc3cc(C)cc(C)c23)cc1	-0.35
O=C(CSc1oc(-c2ccc(F)cc2)nc1S(=O)(=O)c1ccc(Br)cc1)NC1CCCCC1	-1.62
COc1ccc2cc(-c3nccn3CCCOC3CCCC3)c(=O)[nH]c2c1	0.29
COc1ccc(N(CC(=O)NCCc2ccccc2)S(=O)(=O)c2ccc(OC)c(OC)c2)cc1	-1.22
CN(C)C(=O)CSc1nnc(NC(=O)Cn2ccnc2-c2ccccc2)s1	0.11
Cc1cc(C)n2ncc(-c3nccn3-c3ccc(N4CCOCC4)cc3)c2n1	-1.07
COCCCNC(=O)CN1C(=O)COc2ccc(S(=O)(=O)N3CCCC3)cc21	-0.75
CC(CCc1nc(-c2ccc(F)c(F)c2)n[nH]1)N1CCOCC1 (stereo not drawn)	0.69
CCOC(=O)c1ccc(N2C(=O)c3[nH]nc(-c4ccc(OCC)cc4)c3C2c2cccs2)cc1 (stereo not drawn)	-0.04
CC(C)C(=O)Nc1ccc(NC(=O)c2cncc(F)c2)cc1Cl	0.75
COc1ccccc1NC(=O)C1=C(C)Nc2nnnn2C1c1cc(Br)c(O)c(OC)c1 (stereo not drawn)	-1.35
CCS(=O)(=O)c1c(Nc2ccc(F)c(Cl)c2)sc(C(=O)c2ccccc2)c1N	-0.66
COc1ccccc1C(=O)Nc1cccc(OCc2cc(=O)n3c(C)csc3n2)c1	-1.6
COc1ccc2c(C)c(C(=O)N3CC[C@]4(OC)CCC(O)CC34)oc2c1 (stereo partly drawn)	-0.25
COc1ccc(C)cc1NC(=O)c1nnn(Cc2cccc(Br)c2)c1N	0.37
N#Cc1ccccc1S(=O)(=O)N1CCC(Oc2ccc(-n3cnnn3)cc2)CC1	-1.63
O=C(Nc1ccccc1Cl)c1cc2c(-c3ccccc3)nn(-c3ccccc3)c2s1	-0.74

(cont.)
SMILES	fixLJ activator
CCN1CCN(C(=O)c2ccc3c(c2)N(Cc2ccccc2)C(=O)c2ccccc2S3=O)CC1 (stereo not drawn)	1.01
COc1cccc(CNCCSc2nnnn2C)c1OCc1ccc(F)cc1	-2.07
c1ccc(-c2cc(-c3ccccc3)c3c(n2)-c2ccccc2OC3)cc1	-1.33
COc1ccccc1CNC(=O)C1CCN(S(=O)(=O)c2c(C)noc2/C=C/c2cccs2)CC1	-0.18
COc1ccc(-c2cc(C(=O)Nc3c(C)n(C)n(-c4ccccc4)c3=O)no2)cc1OC	-1.75
O=C(Cn1c(=O)nc(-c2ccccc2)c2cc(Cl)ccc21)NCCc1ccc(Cl)cc1	0.12
COc1ccc(NC(=O)CSc2ncc(-c3ccc(Cl)cc3)[nH]2)cc1OC	-0.85
O=C(c1ccc[nH]1)N1CC2CCC(C1)N(Cc1ccccc1)C2=O (stereo not drawn)	0.23
CCCc1ccc(OCc2ccc(C(=O)Nc3ccccc3C(=O)OC)o2)cc1	-1.17
CCn1c(=NC(=O)c2ccc(S(=O)(=O)N3CCCC3)cc2)sc2cc(Br)ccc21	-0.86
Cc1ccc(NC(=O)CN(C)S(=O)(=O)c2ccc3c(c2)n(C)c(=O)c(=O)n3C)c(C)c1	-0.06
O=C(Cn1c(=O)n(CCc2ccccc2)c(=O)c2cccnc21)Nc1ccc(F)cc1	-1.99
CCCCSc1nnc2n(-c3cccc(C)c3)c(=O)c3c4c(sc3n12)CCCC4	0.49
Cc1cccnc1CC(C)N(C)C(=O)CCn1c(C)nc2ccccc21 (stereo not drawn)	0.14
COC(=O)c1cc(Cl)ccc1NC(=O)CSc1ncc(S(=O)(=O)c2ccc(Br)cc2)c(=O)[nH]1	-1.15
CN(C)S(=O)(=O)N(CC(=O)NCCSCc1ccccc1)c1ccccc1	-2.39
Cc1c(CCC(=O)NCc2ccc(F)cc2)c(=O)oc2cc(O)ccc12	1.54
CC(C)c1ccc(C2=NC(c3ccncc3)=Nc3ccc(F)cc3N2)cc1	0.04
O=C(Cn1ncc2c3ccccc3n(Cc3ccccc3)c2c1=O)Nc1ccccc1C(F)(F)F	-2.68
CCOc1ccc(Cn2nnc3c(=O)[nH]c(C4CCN(C(=O)c5ccccc5)CC4)nc32)cc1	-1.66
COC(=O)c1ccccc1NC(=O)Cn1c(=O)n(CCCC(=O)NCCc2ccc(OC)c(OC)c2)c(=O)c2ccccc21	-0.36
COc1ccc(CCNC(=O)CN2C(=O)COc3ccc(S(=O)(=O)N4CCCCCC4)cc32)cc1OC	0.11
COc1ccc(N2CCN(S(=O)(=O)c3c(C)nc4scc(C)n4c3=O)CC2)cc1	-0.59
O=C(c1ccccc1Cl)n1nc(-c2cccnc2)nc1NCc1ccc(F)cc1	0.35

Retrieved by compound from above, two records:
SMILES	fixLJ activator
Cc1c(CCC(=O)NCc2ccc(F)cc2)c(=O)oc2cc(O)ccc12	1.54
CCN1CCN(C(=O)c2ccc3c(c2)N(Cc2ccccc2)C(=O)c2ccccc2S3=O)CC1 (stereo not drawn)	1.01
